# Rango dissoc inh – inhibition of RanGTP-driven Rango-importin beta dissociation; O95149+P62826; Biochemical FRET Rango-importin beta, RanGTP-induced dissociation; Potency, µM (series often up to 46.1 µM), inactives show at the highest dose activity change, negative = inhibition; hit rate 0.071% among 340,000; AID 540253; active means falling FRET ratio curve, often poorly fitted, with flat reads before Ran was added; inconclusive means other falling curves, or compound fluorescence or quenching; inactive means flat or rising ratio curve;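 note: potency is the fitted concentration of half-maximal effect; % of control where 0% means no effect; nearly all actives have a fitted effect of over 45% in size; -100% = wells without RanGTP and RCC1; the record marks most hits as doubtful in a second field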
#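 Rango/importin beta premix (0.1/0.25 uM final), PBS + 1 mM DTT + 0.02% Tween-20 + 0.1% BSA; cpd 5 min RT; FRET pre-read; + RanGTP-RCC1 (0.6 uM Ran, 2 mM GTP, 0.2 uM RCC1); 45 min RT; FRET post-read, ex 430, em 486/530 nm.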
# GLA inh pH 4.5 – blocks human alpha-galactosidase A at pH 4.5; P06280; purified enzyme, 4-MU-alpha-Gal fluorescence, pH 4.5; activity change, negative = inhibition, % at 105 µM; 230,000 tested, under 10 active; AID 1467; inconclusive = small, poorly fitted or top-dose-only inhibition, or a rising curve; inactive = flat fitted curve, though single readings scatter; no compound was filed as active;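 note: 0% = full activity with enzyme and -100% = basal without enzyme; dose as in the result columns while the protocol names 77 µM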
# Rango complex inh – prevents formation of the Rango-importin beta complex; hit rate 0.031% among 340,000; Potency, µM (series often up to 92.2 µM), for the others: at the top dose inhibition of complex formation; Q14974; Rango CFP/YFP FRET sensor + importin beta, 45 min; active = rising FRET ratio curve, often small or poorly fitted; inconclusive = mostly compound fluorescence or quenching in the first reads; inactive = flat curves in all reads;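 note: potency is the fitted concentration of half-maximal effect; 0% = DMSO wells and 100% = buffer wells lacking importin beta; nearly all actives have a fitted effect of over 15% in size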
# Target sequence (Q14974 whole entry, looked up): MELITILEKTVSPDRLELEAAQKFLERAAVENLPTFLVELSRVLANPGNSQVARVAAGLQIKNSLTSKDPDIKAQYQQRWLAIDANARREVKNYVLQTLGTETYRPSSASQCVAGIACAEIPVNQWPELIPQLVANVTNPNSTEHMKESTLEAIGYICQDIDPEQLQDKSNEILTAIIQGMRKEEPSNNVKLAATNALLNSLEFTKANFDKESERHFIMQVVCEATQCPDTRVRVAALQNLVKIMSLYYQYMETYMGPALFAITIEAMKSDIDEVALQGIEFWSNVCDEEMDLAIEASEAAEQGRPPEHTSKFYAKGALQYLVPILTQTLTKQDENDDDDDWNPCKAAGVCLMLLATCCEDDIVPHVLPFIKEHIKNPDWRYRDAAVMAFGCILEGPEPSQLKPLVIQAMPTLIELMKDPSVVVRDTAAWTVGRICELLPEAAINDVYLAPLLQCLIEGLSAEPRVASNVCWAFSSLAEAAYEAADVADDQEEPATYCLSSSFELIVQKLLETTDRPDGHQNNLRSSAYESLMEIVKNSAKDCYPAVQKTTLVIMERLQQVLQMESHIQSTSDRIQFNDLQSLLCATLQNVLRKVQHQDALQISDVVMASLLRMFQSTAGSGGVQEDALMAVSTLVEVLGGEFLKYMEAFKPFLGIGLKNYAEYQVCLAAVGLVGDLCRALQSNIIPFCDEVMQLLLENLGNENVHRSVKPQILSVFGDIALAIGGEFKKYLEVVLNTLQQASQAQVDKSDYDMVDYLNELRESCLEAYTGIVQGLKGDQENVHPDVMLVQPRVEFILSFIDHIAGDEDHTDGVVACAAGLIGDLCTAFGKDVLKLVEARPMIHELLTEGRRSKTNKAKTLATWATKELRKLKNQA
#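 Inhibition scored from the CFP 486 nm/YFP 530 nm FRET ratio 45 min after adding 0.125 microM importin beta to 50 nM Rango biosensor preincubated 5 min with compound (room temperature, PBS with DTT, Tween-20, BSA). No-importin wells as positive control.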
# miR-21 reporter – miR-21 reporter, rising signal; HeLa miR-21 FLuc reporter, luciferase, 48 h; 340,000 tested, under 10 active; Potency, µM (series often up to 38.3 µM), for the others: at the highest dose reporter change, positive = more light; active = well fitted rising curve with a large enough effect; inconclusive = small, poorly fitted or top-dose-only effect; inactive = no such curve, though single readings can be large or run the other way;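 note: % of control where 0% means no effect; miR-21 action dims this reporter so a rising signal means less miR-21 action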
#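 Using DMEM plus 10% FBS, HeLa miR-21-FLuc cells are incubated with test compounds (final up to about 40uM) for 48 hours; firefly luciferase signal is then imaged following reagent-mediated lysis.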
# Numbers without * were called inactive; ? = inconclusive; · = not tested or not shown. This is a subset; rates above refer to the full screens.
SMILES,Rango dissoc inh,GLA inh pH 4.5,Rango complex inh,miR-21 reporter
O=C(NNC(=O)c1ccccc1C(=O)O)c1ccc(O)cc1,-4.4%,7.2,0.7%,-40.9%
O=c1[nH]c(/C=C\c2ccc(O)cc2)nc(O)c1[N+](=O)[O-],-1.2%,·,-1.4%,6.0%
COc1cccc(C(=O)N[C@@H](CCSC)c2nc3ccccc3[nH]2)c1,-5.6%,1.7,2.2%,-2.2%
Cc1ccsc1/C=N/NC(=O)C(N)=O,7.9%,3.4,0.2%,-31.5%
COc1ccc(Br)cc1/C=N/n1c(C)nnc1C,2.2%,-6.5,-3.5%,-5.1%
CN(C(=O)/C=C/c1ccccc1)C1CCCCC1,34.0%,·,2.3%,·
O=c1cc(CN2CCN(S(=O)(=O)c3ccc4ccccc4c3)CC2)nc2sccn12,-17.7%,0.1,?,-12.3%
O=C(Cc1c(F)cccc1Cl)NNC(=O)c1ccc(Br)s1,-10.5%,·,-1.6%,·
COc1ccc(OCC(O)CNS(=O)(=O)c2cccc(Cl)c2)cc1 (configuration not stated),-14.3%,-3.1,4.3%,9.5%
COc1cc(NC(=O)NCc2ccco2)ccc1-c1ccc(NC(=O)NCc2ccco2)cc1OC,4.1%,·,-0.7%,·
O=c1c2c3c(sc2ncn1/N=C/c1cccnc1)CCCC3,-0.3%,-4.6,-1.5%,-2.6%
CC1CCCCC12NC(=O)N(CC(=O)N1CCN(S(=O)(=O)Cc3ccccc3)CC1)C2=O (configuration not stated),10.8%,·,-0.6%,·
O=C(CSc1nnc(C2COc3ccccc3O2)o1)N1CCCC1 (configuration not stated),-5.9%,12.5,-1.4%,-34.6%
CC1=NN(C(=O)COc2ccc(C)c(C)c2)C(O)(c2ccc(Cl)cc2)C1 (configuration not stated),-6.1%,-5.6,-3.1%,-8.2%
COc1ccc(C(=O)N=C2SC3CS(=O)(=O)CC3N2c2ccccc2)cc1OC (configuration not stated),15.0%,·,0.3%,0.1%
COC(=O)[C@@H](NC(=O)Nc1ccc(OC(F)(F)F)cc1)C(C)C,-6.6%,1.9,0.0%,-13.4%
CCC(=O)n1nc(NCc2ccc(OC)c(OC)c2)nc1NCc1ccc(OC)c(OC)c1,-2.1%,-7.4,2.8%,-1.2%
Nc1n[nH]c(S(=O)(=O)CCCc2ccccc2)n1,9.9%,0.1,-1.5%,-7.3%
CCOC(=O)C(CC)Sc1ccc2nnc(-c3cccnc3)n2n1 (configuration not stated),0.1%,2.7,-1.6%,-20.9%
COc1ccc(CNC(=O)Cn2ccc([N+](=O)[O-])n2)cc1OC,-2.5%,·,-1.1%,-1.6%
Cc1noc(NS(=O)(=O)c2ccc(NC(=O)CSc3n[nH]c(-c4ccccc4)n3)cc2)c1C,1.6%,-6.0,4.0%,-2.2%
COc1ccccc1/C=C(/C(=O)OCC(=O)Nc1ccccc1C)c1ccccc1,-7.9%,1.2,-0.7%,-3.9%
O=C(CSCCNS(=O)(=O)c1ccccc1)Nc1ccccc1,10.9%,5.5,-0.5%,-4.1%
COc1ccccc1C(=O)N1CCN(CCNC(=O)C(=O)Nc2ccc(Br)c(C)c2)CC1,5.6%,·,-1.9%,14.8%
COc1cccc(N2CCN(S(=O)(=O)c3c(C)[nH]c(C)c3C(=O)N3CCCCC3)CC2)c1,4.7%,·,-3.3%,-7.9%

# Next section; it opens with the four that closed the last part.
SMILES,Rango dissoc inh,GLA inh pH 4.5,Rango complex inh,miR-21 reporter
COc1ccccc1/C=C(/C(=O)OCC(=O)Nc1ccccc1C)c1ccccc1,-7.9%,1.2,-0.7%,-3.9%
O=C(CSCCNS(=O)(=O)c1ccccc1)Nc1ccccc1,10.9%,5.5,-0.5%,-4.1%
COc1ccccc1C(=O)N1CCN(CCNC(=O)C(=O)Nc2ccc(Br)c(C)c2)CC1,5.6%,·,-1.9%,14.8%
COc1cccc(N2CCN(S(=O)(=O)c3c(C)[nH]c(C)c3C(=O)N3CCCCC3)CC2)c1,4.7%,·,-3.3%,-7.9%
O=C(CCc1n[nH]c(=O)[nH]c1=O)N/N=C/c1ccco1,15.0%,3.3,0.1%,-1.8%
CC(C)c1nnc(NC(=O)c2c(O)c3cccc4c3n(c2=O)CCC4)s1,-1.6%,-5.3,1.9%,-3.8%
Cn1c(NC(=O)CCC2CCCCC2)cc(=O)n(C)c1=O,21.0%,-2.2,5.8%,-60.9%
Cc1cc(N2CCN(C(=O)/C=C/C(=O)O)CC2)c2ccccc2n1,-1.8%,·,3.3%,-2.3%
COc1ccc(C(C)=O)cc1COC(=O)CCC(=O)N(CC(C)C)c1c(N)n(CC(C)C)c(=O)[nH]c1=O,11.0%,·,?,·
O=C(Nc1ccc(Oc2ccccc2)cc1)C1CCCO1 (configuration not stated),-9.0%,-0.8,-0.9%,-42.9%
Cc1nn(Cc2ccccc2)c(Cl)c1/C=C/C(=O)OCC(=O)N1CCCC1=O,-21.0%,-2.2,?,-0.9%
O=S(=O)(c1ccccc1)N1N=C(c2cccs2)CC1c1ccc(Br)cc1 (configuration not stated),-11.1%,-3.8,?,-3.9%
Cc1nn(-c2ccccc2)c(C)c1C(=O)Oc1ccccc1,-0.6%,-13.9,9.1%,-53.9%
COC(=O)c1ccccc1NC(=O)COC(=O)C1CCCCC1,13.4%,-3.3,3.2%,-2.5%
CCn1c(C)nc2cc(C(=O)N/N=C(\C)c3ccccc3O)ccc21,?,5.0,?,-44.5%
COc1cc(Cl)ccc1OCc1cc(C(=O)NC(C)Cc2cnccn2)no1 (configuration not stated),5.1%,·,?,-52.0%
CC1(C)Cc2c(ccc3ccccc23)/C(=C/C(=O)N2CCCCC2)N1,?,-6.5,?,-2.6%
Cc1ccccc1N(CC(=O)NCc1ccccc1)C(=O)CCC(=O)Nc1nccs1,-13.0%,·,0.2%,2.0%
COc1ccc(-n2nc(C(=O)NCC(=O)N3CCN(Cc4ccc5c(c4)OCO5)CC3)c3ccccc3c2=O)cc1OC,5.2%,-4.6,-0.7%,9.6%
COc1cc(OC)c(-c2oc3ccccc3c(=O)c2O)c(OC)c1,?,·,?,·
CCOc1cc(CNC2CCCC2)ccc1OCc1ccccc1Cl,12.5%,-2.8,0.2%,4.0%
CCCCN(CC)c1nc(-c2ccncc2)nc2ccccc12,-0.6%,-1.5,-0.3%,21.0%
O=C(NCc1ccccc1)N[C@@H](Cc1ccccc1)C(=O)O,1.6%,0.0,-0.9%,0.6%
O=C(Nc1ccccc1)n1ccc(-c2ccc(-n3ccnc3)cc2)n1,·,-3.1,·,-37.2%
CCc1cc(=O)oc2cc(OC(C)C(=O)NCCCn3ccnc3)ccc12 (configuration not stated),-1.1%,·,0.3%,-0.1%
COc1ccc([N+](=O)[O-])cc1NC(=O)COC(=O)c1ccc(O)cc1,-5.7%,2.5,1.4%,-5.2%
Cc1ccc(S(=O)(=O)N2C(=S)SCC2(C)C)cc1,·,-3.1,·,-1.1%
S=C(c1ccccc1)N(c1ccccc1)c1ccccc1,19.4%,-4.4,-0.6%,2.3%
COc1cccc2nc3c(C(=O)NCCN(C)C)cccc3cc12,?,·,?,·
# Going on with the list:
SMILES,Rango dissoc inh,GLA inh pH 4.5,Rango complex inh,miR-21 reporter
O=C(CCl)NCCNC(=O)c1cc(OCC(F)(F)F)ccc1OCC(F)(F)F,-9.8%,8.0,1.0%,24.5%
COc1ccc(N(CC(=O)Nc2cc(C)ccc2C)S(=O)(=O)c2c(C)[nH]c(=O)[nH]c2=O)cc1,1.1%,·,-0.4%,-1.1%
O=C(N/N=C/c1ccco1)C1CC(=O)N(c2ccccc2)C1 (configuration not stated),1.5%,3.0,2.2%,2.9%
CCn1cnc2cc(NCc3ccc(Cl)cc3)ccc21,1.6%,·,4.0%,-69.9%
COc1ccc(CCNC(=O)COC(=O)c2ncc(Cl)c(Cl)c2Cl)cc1OC,-9.8%,·,0.3%,·
OCCN(CCO)CC(O)Cn1c2ccccc2c2ccccc21 (configuration not stated),-1.5%,1.9,1.5%,-0.3%
CCCOc1ccc(C(=O)NNC(=O)c2cccc(S(=O)(=O)N3CCN(C(C)=O)CC3)c2)cc1OC,35.0%,·,-1.6%,·
Cc1ccc(S(=O)(=O)CC(=O)NC(C)(C)C)cc1,0.0%,-1.0,0.1%,0.0%
COCCCn1c(C)c(C(C)=O)cc(NC(=O)c2ccccc2)c1=O,0.4%,-2.3,2.3%,-7.3%
COCCn1c(CN2CCN(C(=O)c3ccco3)CC2)nc2c1c(=O)n(C)c(=O)n2C,-11.2%,·,4.9%,0.1%
CCCc1[nH]n(-c2ccc([N+](=O)[O-])cc2)c(=O)c1C=NCCN1CCNCC1,·,-1.1,·,-19.9%
COc1ccc(/C(C)=N/NC(=S)NCCc2ccccc2)cc1,6.5%,-5.8,0.0%,5.2%
CC(=O)C(Cc1ccccc1)NC(=O)CCl (configuration not stated),15.9%,1.0,0.8%,21.2%
O=S(=O)(NCc1ccccc1)c1ccc(NC(=S)NCc2ccco2)cc1,-12.1%,·,-0.5%,16.2%
COc1ccc(C2c3c(oc4ccccc4c3=O)C(=O)N2CC2CCCO2)cc1 (configuration not stated),25.3%,-0.5,4.5%,-10.4%
O=[N+]([O-])c1cc(S(=O)(=O)NCCc2ccccn2)ccc1Cl,-2.3%,·,-0.1%,·
COc1cc(C2Nc3ccc4ncccc4c3C3=C2C(=O)CCC3)cc(OC)c1OC (configuration not stated),-15.2%,-1.9,?,-6.3%
CSc1ncccc1C(=O)OCC(=O)NC1CCC(C)CC1 (configuration not stated),12.0%,·,0.1%,·
CCCCn1c(N)c(N(CC)C(=O)C2=COCCO2)c(=O)[nH]c1=O,-12.7%,·,2.1%,·
CCc1cccc(C)c1NC(=O)C1CCCO1 (configuration not stated),3.9%,5.0,1.3%,-3.9%
COc1ccc(NC(=O)C(C)(C)Oc2ccc(Cl)cc2)cn1,-5.7%,·,-2.6%,·
O=C(Cn1cc(C(F)(F)F)ccc1=O)N/N=C/c1ccc(F)cc1,1.0%,2.1,-2.1%,-0.1%
Cc1ccc2c(c1)oc(=O)n2CC(=O)c1ccccc1,7.2%,-8.4,0.1%,-2.4%
Cc1cc(C(=O)N/N=C/c2cccs2)n[nH]1,-14.0%,1.5,-0.3%,-47.0%
CN=Cc1nc(-c2ccccc2)oc1O,-13.7%,-2.1,4.2%,-46.3%
# The listing continues.
SMILES,Rango dissoc inh,GLA inh pH 4.5,Rango complex inh,miR-21 reporter
COc1cc(C(=O)NCC(c2cccnc2)N2CCN(C)CC2)cc(OC)c1OC (configuration not stated),-2.4%,-4.0,8.2%,0.2%
CC(=O)NS(=O)(=O)c1ccc(N=c2ssc3c2-c2ccc(C)cc2NC3(C)C)cc1,6.4%,-8.1,3.8%,-2.2%
O=S1(=O)CC(N2CCOCC2)c2ccccc21 (configuration not stated),0.6%,-5.5,-1.2%,1.0%
O=C1OCC2=C1C(c1ccc(Cl)cc1)c1cc3c(cc1O2)OCO3 (configuration not stated),5.1%,·,-0.4%,·
O=[N+]([O-])c1ccc(Cl)c(C2Nc3cccc4cccc(c34)N2)c1,12.7%,-4.7,-1.6%,?
O=C(NNC(=O)c1ccc2c(=O)n3c(nc2c1)CCC3)c1ccc(Cl)cc1,10.7%,·,3.4%,·
CCOC(=O)C1CCCN(CC(=O)Nc2c(C(=O)OC)[nH]c3ccccc23)C1 (configuration not stated),5.7%,-0.8,-6.0%,-2.6%
CCOCCCn1c(C)nc2c[n+](CC(=O)c3ccc4ccccc4c3)cc(Br)c21,1.4%,-0.2,5.2%,13.8%
C=CCn1c(SCC(O)Cn2c3ccccc3c3ccccc32)nnc1-c1ccco1 (configuration not stated),-6.6%,-6.8,-2.4%,4.3%
N#Cc1cc2ccccc2nc1SCC(=O)Nc1ccccc1N1CCOCC1,-16.1%,-4.9,-0.8%,-1.1%
CCCCNC(=O)c1nnn(-c2ccccc2)c1N,0.9%,0.2,-1.2%,-64.3%
O=C(NCCCN1CCOCC1)c1cc2ccccc2cc1O,?,·,?,·
c1coc(CNc2nc3ccccc3n2CCN2CCOCC2)c1,-9.7%,-2.9,-4.4%,-11.4%
CCSc1nnc2c(n1)OC(c1ccc(C(=O)O)cc1)N(C(C)=O)c1ccccc1-2 (configuration not stated),-4.8%,-0.6,0.3%,-5.6%

# Screening data deposited in PubChem by National Center for Advancing Translational Sciences (NCATS).
